# Six1-Eya2 blk: qHTS Assay for Inhibitors of the Six1/Eya2 Interaction | AlphaScreen GST-Six1/His-Eya2 binding, biochemical; stronger effect = lower value; control for the full effect not named in the record | activity change, % (test concentration not listed) | 0.56% of 360,000 active | AID 651725, 2012; in the data active = activity change below about -65%; inconclusive = about -30% to -65%; inactive = above about -30%; further: on the % scale 0 is the no-effect control and ±100 the full control effect; compound concentration not given in the record
# Target sequence (O00167 whole entry, looked up): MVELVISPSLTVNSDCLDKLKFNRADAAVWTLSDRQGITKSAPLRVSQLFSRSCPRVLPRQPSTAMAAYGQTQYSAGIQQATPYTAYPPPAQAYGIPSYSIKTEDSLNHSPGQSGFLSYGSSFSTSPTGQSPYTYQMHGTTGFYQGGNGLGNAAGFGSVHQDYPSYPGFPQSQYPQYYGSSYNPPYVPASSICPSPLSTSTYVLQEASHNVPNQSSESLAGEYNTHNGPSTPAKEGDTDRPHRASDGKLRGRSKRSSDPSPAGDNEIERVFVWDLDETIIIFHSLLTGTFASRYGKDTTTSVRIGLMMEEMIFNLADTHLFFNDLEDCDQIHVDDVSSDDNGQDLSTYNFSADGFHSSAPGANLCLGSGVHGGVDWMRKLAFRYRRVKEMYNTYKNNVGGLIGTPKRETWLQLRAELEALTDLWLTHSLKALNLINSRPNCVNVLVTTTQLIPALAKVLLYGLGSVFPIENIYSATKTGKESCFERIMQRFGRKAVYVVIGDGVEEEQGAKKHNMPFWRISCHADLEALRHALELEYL
# Target sequence (Q15475 whole entry, looked up): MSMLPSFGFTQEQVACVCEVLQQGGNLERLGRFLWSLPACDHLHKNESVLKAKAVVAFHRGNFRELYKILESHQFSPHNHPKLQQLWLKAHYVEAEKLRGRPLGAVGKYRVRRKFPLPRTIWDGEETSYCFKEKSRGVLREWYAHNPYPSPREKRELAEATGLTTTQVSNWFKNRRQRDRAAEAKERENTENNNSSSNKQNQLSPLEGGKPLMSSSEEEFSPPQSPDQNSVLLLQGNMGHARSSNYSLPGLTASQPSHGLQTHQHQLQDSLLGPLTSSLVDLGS
#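 Compounds are tested against tagged Six1 and Eya2 proteins bridged by glutathione donor and nickel acceptor beads; after a one-hour incubation at 37 °C without light, AlphaScreen emission is recorded.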
# CtBP-E1A inh: qHTS Assay for Inhibitors of the CtBP/E1A Interaction | AlphaScreen GST-E1A/His-CtBP binding, 1536-well; stronger effect = lower value; control for the full effect not named in the record | 0.49% of 340,000 active | activity change, % (concentration not given with the values) | CtBP / adenovirus E1A interaction (AlphaScreen); in the data active means activity change below about -65%; inconclusive means about -30% to -65%; inactive means above about -30%; further: on the % scale 0 is the no-effect control and ±100 the full control effect
#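 Steps: dispense buffer (Tris pH 8.0, NaCl 300 mM, TCEP 1 mM, BSA, Tween 20); add 5X protein mix (GST-E1A, His-CtBP, 125 nM each); pin 23 nL compound; 2 h at 37 °C, dark; add 5X beads (50 ug/mL); 1 h; read.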
# D2 ag: Beta-Arrestin HTS for Positive Allosteric Modulators of the Human D2 Dopamine Receptor: Agonists; 0.084% of 360,000 active; activation, % (test concentration not listed); AID 624465, 2012; DiscoveRx PathHunter D2 beta-arrestin, luminescence, 90 min; 100% = 57 uM dopamine signal; in the data active = activation above about 40%; inconclusive = about 15% to 40%; inactive = below about 15%; further: compound concentration not given in the record; the text of the record calls up to 30% inactive
#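 Agonist mode: compounds alone added to overnight-plated D2 PathHunter cells for 90 min at 37 C, with 57 uM final dopamine (EC100) defining full response. Beta-arrestin recruitment detected by chemiluminescent reagent, read after 1 h at ambient temperature.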
# TRPML1 agonist: qHTS for Agonists of the Human Mucolipin Transient Receptor Potential 1 (TRPML1); TRPML1-expressing cells, Ca2+ dye fluorescence, FDSS; host cell line not named in the record; reference of the full effect not given here; AID 624414, 2012; 0.12% of 410,000 active; Mucolipin-1 (Homo sapiens), Q9GZU1; activation, % (no concentration beside the values); in the data active = activation above about 50%; inconclusive = about 30% to 50%; inactive = below about 30%; further: 0% is about no effect; the text of the record puts the active cut at 80%
#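 Calcium fluorescence on an FDSS kinetic reader gave the read-out. Tet-induced TRPML1-DL cells were plated overnight, dye-loaded (Ca8 with quencher, 45-90 min, room temperature, dark), then read 110 s after compound addition, and again 110 s after 4uM final 54-4 (EC80).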
# D2 potentiator: Beta-Arrestin HTS for Positive Allosteric Modulators of the Human D2 Dopamine Receptor: Potentiators. D(2) dopamine receptor (Homo sapiens), P14416. DiscoveRx D2 beta-arrestin cells, luminescence, 90 min; 100% = 57 uM dopamine signal. potentiation, % (concentration not given with the values). 0.23% of 360,000 active. AID 624464, 2012; active = potentiation of 50% or more; inconclusive = 30% to 50%; inactive = 30% or less;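 further: compound concentration not given in the record; tested on top of an EC20 dose of dopamine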
#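 D2 cells co-treated with compound plus 50 nM dopamine (EC20) for 90 min at 37 deg C to detect potentiation. Beta-arrestin recruitment was read as enzyme-fragment luminescence after 1 h at ambient temperature. Full response was set by 57 uM dopamine.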
# PINK1 modulator: A Quantitative High throughput Screen to Identify Chemical Modulators of PINK1 Expression; PINK1 immunofluorescence, high-content cytometry, 24 h; Potency, µM (series often up to 76.6 µM), without a hit: top-dose activation (PINK1 increase), actives largely listed as activators; 0.2% of 410,000 active; active = well fitted activation curve with a large enough effect; inconclusive = small, poorly fitted or top-dose-only effect; inactive = flat fitted curve, though single readings scatter; cell line not stated here;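 further: potency means the concentration at half of the fitted maximal effect; % of control where 0% means no effect; nearly all actives have a fitted effect of over 65% in size; a mitochondrial uncoupler was the plate control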
#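 Decision-based qHTS: stable cells, 24 h exposure to five compound concentrations, CCCP as control. Fixed cells stained for PINK1 plus nuclear, mitochondrial and cell markers, cytometer read.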
# An asterisk follows results filed as active; ? = inconclusive; nt = not tested or not shown; & = joins results of further samples; [ ] = remark or other dose. Compounds as they come, and some 1.3% of all compounds hit somewhere here.
SMILES,Six1-Eya2 blk,CtBP-E1A inh,D2 ag,TRPML1 agonist,D2 potentiator,PINK1 modulator
Cc1ccc(/C=N/NC(=O)CN2CCN(S(=O)(=O)c3ccc(Br)cc3)CC2)s1,-7,2,0.4,2.7,-13,0.5%
CCCCN(CC)CCNC(=O)c1cn(C)c(=O)c2c1c1ccccc1n2C,0,-10,-2.3,-0.3&-0.4,-20,-1.2%&-1.0%
O=C(CSc1nncn1-c1ccccc1)c1c[nH]c2ccccc12,5,-6,-1.3,0.6,6,6.0%
COCCCN1C(=O)C(=O)/C(=C(/O)c2ccccc2)C1c1ccc(N(C)C)cc1 (configuration not stated),1,7,0.3,0.9,2,-0.9%[38.3 µM]
COc1ccc2[nH]c3c(c2c1)CCN1C(=O)C(CC(=O)NC(C)(C)C)C[C@H](C(=O)N2CCCCC2)[C@@]31C (some centres not stated),-1,3,-0.5,-0.5,nt,1.5%
NC(=O)C1CCCN(Cc2c(C(=O)N3CCc4ccccc4C3)nc3ccc(Cl)cn23)C1 (configuration not stated),-19,-5,-3.8,0.4,-45,-0.4%
Cn1c(=O)n(Cc2ccccc2Cl)c2ccccc21,7,-1,2.1,2.4,1,3.7%
COC(=O)CC1=NN(c2nc3ccccc3s2)C(=O)/C1=C/N(C)C,3,-10,-4.3,-0.3,-8,0.2%
CN1c2ccccc2C(C)(C)C12CCCC(=O)N2 (configuration not stated),-1,-1,1.1,0.0,3,0.0%
COc1ccc2[nH]c(C(=O)NCCc3ccccc3)cc2c1,-7,0,-2.8,-0.5,0,0.3%
COC(=O)CSc1cc([N+](=O)[O-])ccc1NC(=O)OC,-4,4,0.7,-0.7,5,0.3%
CC(OC(=O)c1snc(C(=O)NC2CCCCC2)c1N)C(=O)NC(C)(C)C (configuration not stated),10,0,3.2,0.7,14,-1.0%
Cc1ccc(S(=O)(=O)NNC(=O)CCCCC(=O)NNS(=O)(=O)c2ccc(C)cc2)cc1,-11,-13,-3.3,1.4,6,-0.6%
COCCNC(=O)C1(C)CCCN(C(=O)c2ccccc2F)C1 (configuration not stated),2,0,-4.0,-0.5,-1,1.1%
COc1ccc(Cc2c(-c3cccc(Br)c3)nc3ccc(Br)cn23)c(C)c1,5,-10,-4.6,0.6,-3,6.0%
COCCCN1CN(S(=O)(=O)c2ccc(C)cc2C)c2nc3ccccc3nc21,3,nt,-2.0,2.1,-5,3.5%
C[C@@H]1CC[C@@]2(O[C@H](CCO)C[C@@H](O)[C@@H]2O)O1,2,6,-4.4,-0.9,0,-0.2%
O=C(COc1ccccc1)NC1CCS(=O)(=O)C1 (configuration not stated),10,nt,-2.4,0.5,-11,-1.4%
COc1ccc(-c2sc3ccccc3c2/C=C/c2ccncc2)cc1,3,10,-1.4,0.3,-14,5.4%
O=C(Cc1cn2ccsc2n1)OCc1ccccc1,9,1,3.5,-0.2,-5,-1.0%

# 4 records picked at random from those above:
SMILES,Six1-Eya2 blk,CtBP-E1A inh,D2 ag,TRPML1 agonist,D2 potentiator,PINK1 modulator
COc1ccc(-c2sc3ccccc3c2/C=C/c2ccncc2)cc1,3,10,-1.4,0.3,-14,5.4%
Cc1ccc(S(=O)(=O)NNC(=O)CCCCC(=O)NNS(=O)(=O)c2ccc(C)cc2)cc1,-11,-13,-3.3,1.4,6,-0.6%
COCCCN1CN(S(=O)(=O)c2ccc(C)cc2C)c2nc3ccccc3nc21,3,nt,-2.0,2.1,-5,3.5%
COC(=O)CC1=NN(c2nc3ccccc3s2)C(=O)/C1=C/N(C)C,3,-10,-4.3,-0.3,-8,0.2%

# Following part:
SMILES,Six1-Eya2 blk,CtBP-E1A inh,D2 ag,TRPML1 agonist,D2 potentiator,PINK1 modulator
CCOC(=O)C1=NOC(C(=O)NN(C)c2ncc(C(F)(F)F)cc2Cl)C1 (configuration not stated),5,8,-0.5,0.4,-2,0.8%
O=C(N/N=C/c1ccoc1)c1ccc(Cl)cc1Cl,-4,7,-1.3,1.6,-16,2.1%
CC(C)CC1(C)NC(=O)N(CC(=O)N2C(C)CCCC2C)C1=O (configuration not stated),5,-2,-0.6,3.5,-1,1.1%
COc1ccc(-c2cc(C(=O)O)c3c(C)nn(-c4ccccn4)c3n2)cc1,-1,7,-4.5,-0.5,4,0.3%
COc1cc(/C=C2/C(=O)NN(c3cccc(C)c3)C2=O)ccc1OC(=O)c1ccco1,-8,-16,-0.5,0.8,-18,1.1%
COc1ccccc1-c1nnc(NC(=O)c2cccc(N3C(=O)CCC3=O)c2)o1,?,?,-2.9,0.4,-1,3.6%
Cn1c(N)c(C(=O)COC(=O)CN2C(=O)c3ccccc3C2=O)c(=O)n(C)c1=O,-12,nt,3.6,0.1,-8,0.5%
CCCc1c(C(=O)N/N=C/c2ccc(OCc3ccccc3)c(OC)c2)nnn1-c1nonc1N,23,11,2.4,-0.4,4,3.7%
CCOC(=O)N1CCN(S(=O)(=O)N2CCCC(C(=O)NCc3ccc(OC)cc3)C2)CC1 (configuration not stated),6,4,-2.7,0.0,-4,-0.4%
COc1ccc(-c2csc3ncnc(NCCCO)c23)cc1,-5,-2,-1.3,0.1,1,-1.4%
COc1ccccc1NC(=O)C(C)OC(=O)CCSc1ccc(F)cc1 (configuration not stated),20,-8,-2.5,2.8,7,-0.2%
C=CCSc1ncc(CO)n1Cc1ccccc1,-3,2,-4.5,-0.8,-9,-1.4%
CCN(CC)S(=O)(=O)c1ccc(-c2cn3ccccc3n2)cc1,-2,-2,-3.1,-0.8,-4,1.2%
CCCCCN1CC(=O)N2Cc3[nH]c4ccccc4c3C[C@H]2C1=O,-2,-6,-2.0,0.2,-4,0.3%
COc1ccc(CN2CCNC(=O)C2CC(=O)NCC2CCOCC2)c(F)c1 (configuration not stated),0,7,-1.5,0.3,-4,-2.3%
O=c1ccc(-c2nc3ccccc3n2Cc2ccccc2Cl)c[nH]1,-7,0,-6.1,0.1,-2,4.9%
CC1(C)Cc2ccccc2/C(=C/C(=O)N2CCCCCC2)N1,-7,-18,-2.3,2.1,-14,0.7%[38.3 µM]
C[C@H]1CN([C@@H](C)CO)C(=O)CCCn2nncc2CO[C@H]1CN(C)S(=O)(=O)c1ccc(Oc2ccccc2)nc1,-6,-5,-0.4,0.3,-3,-0.3%
CSCCC(NC(=O)c1ccccc1Cl)C(=O)NCC(c1ccco1)N1CCCCC1 (configuration not stated),2,7,0.0,0.8,-67,-2.7%
COc1ccc(C(=O)OC(C(=O)c2ccc(C)cc2)c2ccccc2)cc1 (configuration not stated),-2,-6,-4.6,3.9,-12,1.1%
NC(=O)NCc1ccccc1,0,-20,-1.6,0.3,-1,-0.3%
O=C(Nc1ccc(C(F)(F)F)cc1)c1cnc(N2CCN(c3ccccn3)CC2)c2ccccc12,3,-14,4.4,-0.2,-2,4.3%
CCOCCCNC(=S)N1CCC(NC(=O)C2CCCCC2)CC1,7,0,3.1,1.3,-10,-0.2%
COC(=O)c1cnc[nH]1,-14,-8,-4.0,-0.2,-5,0.2%
Cc1ccc(NC(=S)NC(=O)C2CCCCC2)c(Br)c1,-9,8,2.0,0.0,-6,19%
O=C(O)c1ccc(Cl)cc1Nc1nc2cc(Cl)ccc2o1,7,-6,-2.4,1.0,-6,14%
CCOC(=O)c1c(N)sc2c(O)c(Br)ccc12,-13,-9,-0.3,1.3,-10,-4.0%[38.3 µM]
CN(C)/C=C(\C#N)C(=O)N/N=C(\CC(=O)C(F)(F)F)c1ccco1,2,12,-1.3,0.6,1,0.8%
Cc1ccc(-n2c(C)cc(/C=N/Nc3ccc([N+](=O)[O-])cn3)c2C)cc1,-12,-9,-3.0,1.5,-3,9.7%
CCC(NC(=O)CCc1c(C)c2cc3c4c(oc3cc2oc1=O)CCCC4)C(=O)O (configuration not stated),?,4,-4.3,nt,4,2.1%
Fc1ccc(Nc2ccnc(Nc3ccc(F)cc3)n2)cc1,3,-7,2.2,-0.1,-3,1.9%
CCOc1ccc(/C=C/C(=O)N2CCOCC2)cc1OC,6,nt,1.5,nt,-13,-0.1%
Cc1[nH]c2ccccc2c1C(=O)CN1C(=O)C(=O)N(CCC2=CCCCC2)C1=O,-3,-8,5.3,0.8,-2,2.3%
Cc1cccc(N(C)C(=O)CCS(=O)(=O)c2cccc3nonc23)c1,4,2,-1.3,3.6,-7,-1.5%
C[C@H](CO)N1C[C@H](C)[C@@H](CN(C)S(=O)(=O)c2cn(C)cn2)Oc2ccc(NC(=O)C3CC3)cc2C1=O,1,5,-5.2,-0.1,-5,1.0%
Cc1cc(C)cc(NC(=O)CCC(=O)Nc2nnc(C(C)C)s2)c1,3,0,-4.2,-0.7,-28,4.3%
Cc1ccc(C(=O)NCCN2CCOCC2)cc1C,10,-5,-0.3,0.5,-8,-0.2%
Cc1cc(C(=O)Nn2c(-c3ccncc3)nc3ccccc3c2=O)ccc1[N+](=O)[O-],-18,-4,-5.4,-0.4,-1,-0.6%
Cc1ccccc1Cn1c(=O)c2c(nc3n2CCN3Cc2ccco2)n(C)c1=O,-9,-12,-0.1,nt,2,1.1%
Cc1c(NC(=O)CSc2nnc(-c3cccnc3)n2N)c(=O)n(-c2ccccc2)n1C,10,nt,-2.9,0.3,-1,-1.5%
CSc1cc(/C=N/O)c(SC)s1,-2,-2,0.2,1.6,-6,2.5%
Cc1cc(C(=O)NCc2cccnc2)cs1,9,5,-0.6,-0.1,-5,0.8%[38.3 µM]
CCCn1c(NC(=O)C2CCN(C(=O)c3ccccc3C)CC2)nc2ccccc21,-4,-20,-4.1,0.3,-22,?
O=C1CCCC(=O)N1c1ccc(N2CCN(c3ccccc3)CC2)c([N+](=O)[O-])c1,-3,-8,-0.7,-0.2,-8,0.1%
O=C(N/N=C/c1ccccn1)C12CC3CC(CC(C3)C1)C2,13,2,-1.9,0.3,-20,1.9%
COc1ccc(C(C(=O)NC2CCCCC2)N(C(=O)c2ccco2)c2ccccc2C(C)=O)cc1OC (configuration not stated),1,0,-3.1,-0.3,2,0.8%
CC(C)CNC(=O)c1cccc(NC(=O)C2CCCO2)c1 (configuration not stated),-4,2,-0.8,-0.8,-17,0.3%
CCOc1ccc(C)cc1S(=O)(=O)NC1CCCCCC1,4,6,2.3,3.0,-14,-0.2%
CCn1nc(NC(=O)c2ccncc2)c2cc3ccccc3nc21,-3,-3,0.9,-0.6,20,0.0%
COc1ccccc1NC(=O)CN1CCN(CC(=O)Nc2ccc(C)c(F)c2)CC1,0,2,-2.0,0.2,-3,0.0%

# A draw from above in order of formula weight, highest first.
SMILES,Six1-Eya2 blk,CtBP-E1A inh,D2 ag,TRPML1 agonist,D2 potentiator,PINK1 modulator
COc1ccc(Cc2c(-c3cccc(Br)c3)nc3ccc(Br)cn23)c(C)c1,5,-10,-4.6,0.6,-3,6.0%
O=c1ccc(-c2nc3ccccc3n2Cc2ccccc2Cl)c[nH]1,-7,0,-6.1,0.1,-2,4.9%
Cc1ccc(C(=O)NCCN2CCOCC2)cc1C,10,-5,-0.3,0.5,-8,-0.2%
